# Screening results deposited in PubChem by several laboratories.
# Beta2AR agonist – beta2AR agonists driving receptor internalization, primary screen, cell-based, FAP fluorogen, flow cytometry | 0.43% of 340,000 active | AID 504454, 2011 | Beta-2 adrenergic receptor (Homo sapiens), P07550 | response, % (test concentration not listed) | Am2.2-beta2AR cells; reference of the scale not given here;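 active = response above a set limit, near 3 SD of response in nonfluorescent compounds, cut at about 42% in these data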;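 also: stock transfer was 100 nL into about 11 µL; a reference agonist was the positive control; negative values mostly stem from fluorescent compounds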
# Calb FLC – C. albicans growth inhibition with fluconazole, primary screen, CaCi-2 strain, Alamar Blue fluorescence | C. albicans CaCi-2 (fluconazole-resistant clinical isolate) + fluconazole, 48 h | growth inhibition, % (test concentration not listed) | 0.57% of 300,000 active | AID 1979, 2009;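 active = most replicates above 75%; inconclusive = exactly half above 75%; inactive = most below 75%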;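 also: all wells also contain fluconazole at 8 µg/ml as a sub-toxic cotreatment; 0% = median of DMSO wells and 100% = median of geldanamycin control wells; wells of about 8 µL received 7.5 nL stock; the first replicate is given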
# RanGTP-Impb inh – inhibitors of RanGTP-importin-beta interaction, primary screen, biochemical, FRET, CFP-Ran, YFP-importin-beta, homogeneous; Ran GTPase (GTP-bound) - importin-beta complex; cell-free CFP-Ran/YFP-importin-beta FRET ratio; inhibition, % (no concentration beside the values); 1.1% of 300,000 active;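 active = most replicates above 15%; inconclusive = exactly half above 15%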;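 also: 0% = DMSO wells and 100% = Ran loaded with GDP instead of GTP; wells of about 40 µL received 100 nL stock; the first replicate is given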
# T cruzi repl – inhibitors of intracellular T. cruzi growth, primary screen, luminescence, NIH3T3 host cells; inhibition, % (test concentration not listed); T. cruzi beta-gal in NIH3T3, 90 h; AID 1885, 2009; 1.4% of 300,000 active;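 active = mean inhibition across valid replicates above about 55%, limit read from the data; inconclusive = mean below that limit but half or more replicates reach it; inactive = mean below it, under half of replicates reach it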;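 also: signal also drops with host cell toxicity which is not excluded here; 0% = plate median of DMSO wells and 100% = zero luminescence signal; higher percent means less beta-gal luminescence so fewer parasites; stock transfer was 50 nL into about 50 µL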
# UCH37 DUB inh – inhibitors of human UCH37 deubiquitinase, primary screen, biochemical, Ub-AMC cleavage, fluorescence. purified proteasome/UCH37. 0.33% of 330,000 active. inhibition, % (no concentration beside the values). Ubiquitin carboxyl-terminal hydrolase isozyme L5 (Homo sapiens), Q9Y5K5;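 active = mean of two replicates above 20%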;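 also: 0% = compound-free wells with enzyme and 100% = wells lacking proteasome; stock transfer was 100 nL into about 20 µL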
#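 system = Proteasome-associated human UCH37 deubiquitinase | amount = 0.15 nM proteasome as dispensed | medium = pH 7.4 Tris-HCl (50 mM) with ovalbumin, ATP-MgCl2, DTT | incubation = 30 min preincubation with enzyme, 25 min cleavage at room temperature | detection = AMC fluorescence 355/460 nm | read-out basis = percent inhibition | controls = no-proteasome and no-compound wells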
# A1 inh – caspase 3/7 activation in MEF A1-2A-BIM cells, primary screen, A1 inhibitor project, cell-based, luminescence, HTS; Caspase-Glo 3/7 luminescence, 3 h; percent of clofoctol response, vehicle zero; caspase activation, % (test concentration not listed); 0.066% of 330,000 active;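 active = over half of replicate activation scores above 10%, or exactly half above 10 with the replicate mean above 10; inconclusive = replicate mean below 10 yet half the replicates above 10; inactive = over half of replicates below 10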;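 also: wells of about 30 µL received 50 nL stock; many hits fall short of the cut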
# Beta apoptosis – inhibitors of cytokine-induced beta cell apoptosis, primary screen, luminescence; INS-1E cytokine-induced death, ATP luminescence, 48 h; percent of positive-control rescue, neutral wells zero; protection from apoptosis, % (concentration not given with the values); 0.8% of 300,000 active;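 active = all replicates at 75% or more, or half of them and the mean; inconclusive = half reach 75% but not the mean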;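 also: 0% = cytokine-treated negative control wells and 100% = positive control rescue; higher means more ATP so stronger rescue from cytokine killing; wells of about 40 µL received 100 nL stock; the first replicate is given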
# LANA-H2A inh – blockers of LANA interaction with H2A/H2B – biochemical, FP readout, HTS, primary screen; inhibition, % (test concentration not listed); Protein LANA1 (Human herpesvirus 8 type P (isolate GK18)), Q9QR71; 0.6% of 320,000 active; cell-free LANA-H2A/H2B peptide, fluorescence polarization; in the data active = inhibition mostly above about 10%, no sharp cut-off; inactive = mostly below about 6.7%;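 also: stock transfer was 7.5 nL into about 10 µL; 0% = median of vehicle wells and 100% = median of positive control wells; one replicate is shown; the record names a cut of 25% in any replicate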
# Target sequence (Q9QR71 whole entry, looked up): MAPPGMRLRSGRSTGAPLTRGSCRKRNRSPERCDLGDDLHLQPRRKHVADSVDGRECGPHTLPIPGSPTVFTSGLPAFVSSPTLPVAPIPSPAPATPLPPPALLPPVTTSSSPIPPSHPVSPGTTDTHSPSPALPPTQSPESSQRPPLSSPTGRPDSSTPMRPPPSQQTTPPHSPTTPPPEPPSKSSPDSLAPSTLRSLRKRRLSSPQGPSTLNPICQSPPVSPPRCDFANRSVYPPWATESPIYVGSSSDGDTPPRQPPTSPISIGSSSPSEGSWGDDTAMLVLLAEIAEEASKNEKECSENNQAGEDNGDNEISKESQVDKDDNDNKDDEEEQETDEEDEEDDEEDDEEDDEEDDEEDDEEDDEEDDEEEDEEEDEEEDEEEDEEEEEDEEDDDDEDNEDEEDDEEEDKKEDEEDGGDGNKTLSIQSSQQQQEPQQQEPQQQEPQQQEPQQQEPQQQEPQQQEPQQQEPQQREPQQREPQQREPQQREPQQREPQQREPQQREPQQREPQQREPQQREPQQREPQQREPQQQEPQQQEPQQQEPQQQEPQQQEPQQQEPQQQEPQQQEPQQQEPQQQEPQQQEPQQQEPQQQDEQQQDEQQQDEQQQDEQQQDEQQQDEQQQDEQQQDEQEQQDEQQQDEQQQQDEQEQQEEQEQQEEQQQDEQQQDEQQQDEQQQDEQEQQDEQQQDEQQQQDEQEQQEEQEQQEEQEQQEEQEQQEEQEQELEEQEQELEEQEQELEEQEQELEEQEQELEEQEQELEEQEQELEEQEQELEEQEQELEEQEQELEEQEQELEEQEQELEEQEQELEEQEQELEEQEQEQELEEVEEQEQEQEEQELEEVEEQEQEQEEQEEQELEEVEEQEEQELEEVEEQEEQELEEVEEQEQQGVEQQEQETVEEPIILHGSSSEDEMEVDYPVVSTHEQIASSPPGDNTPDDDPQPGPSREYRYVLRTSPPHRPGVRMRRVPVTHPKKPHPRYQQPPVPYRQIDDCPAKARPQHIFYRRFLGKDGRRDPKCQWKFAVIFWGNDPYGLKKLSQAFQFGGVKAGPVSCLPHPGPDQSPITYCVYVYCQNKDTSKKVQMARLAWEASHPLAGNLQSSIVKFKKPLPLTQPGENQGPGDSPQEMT
# The depositor's hits bear a star; ? = inconclusive; · = not tested or not shown.
SMILES	Beta2AR agonist	Calb FLC	RanGTP-Impb inh	T cruzi repl	UCH37 DUB inh	A1 inh	Beta apoptosis	LANA-H2A inh
O=C(NN1CCOCC1)c1ccccc1Br	7	3	-2.5	-20	2.9	1.1	-5	2.5
Cc1ccc(S(=O)(=O)N(CC(=O)N2CCOCC2)c2ccc(Br)cc2)cc1	-4	0	-0.3	3	3.7	0.4	-4	1.7
Cc1ccccc1NC(=O)c1oc(=O)c2ccccc2c1-c1ccccc1	-1	-3	-3.0	4	1.1	-0.1	-2	0.0
CCc1ccc(-c2cc(C(F)(F)F)n3nc(C(=O)Nc4cnn(Cc5ccc(C)cc5)c4)cc3n2)s1	19	4	39*	7	-44	2.3	76*	-2.3
COc1nccc(Nc2ccccc2)c1C#N	-7	·	·	·	4.3	0.0	·	2.5
COc1ccc(S(=O)(=O)/C(C#N)=C/Nc2ccc(NC(C)=O)cc2)cc1	3	7	2.5	-10	-5.2	-1.4	-11	2.8
O=C1C(=O)N(CCCn2ccnc2)C(c2ccc(Cl)cc2)/C1=C(\O)c1ccc2c(c1)OCCO2 (stereo not given)	-2	1	-2.3	-17	9.2	-2.2	-2	3.2
CCCCCCC/C=N/Nc1nnc(Cc2ccccc2)c(=O)[nH]1	-1	-4	-0.2	1	·	0.3	-2	-2.9
CCOC(=O)N1CCN(C(=O)CCn2nc(-c3ccc(Cl)cc3)ccc2=O)CC1	-13	-10	1.9	12	3.7	0.5	0	-5.8
COc1cccc(/C=N/n2c(COc3ccccc3)n[nH]c2=S)c1OC	4	7	?	0	·	-0.6	0	4.7
Cc1ccc(Nc2cc(C)nc3nc(C)nn23)c(C)c1	8	5	2.0	-2	6.0	-2.1	-7	5.3
C/C(N)=C(/C#N)C(=O)CSc1nc2ccccc2c(=O)n1Cc1ccc(F)cc1	-1	-1	-0.4	15	1.1	-0.2	10	0.3
Cc1c(Cl)cccc1NC(=S)N1CCN(c2ccc([N+](=O)[O-])cn2)CC1	0	4	-5.4	-5	8.7	0.2	-2	-4.0
Nc1nc(CSc2nnnn2-c2ccccc2)nc(N2CCCc3ccccc32)n1	0	·	·	·	0.3	-0.2	-14	-2.9
Cc1ccc(/C=N/OC(=O)c2nn(C)cc2Cl)cc1	-1	10	6.8	6	·	-1.7	-3	-5.9
O=C(N/N=C/c1ccc(OC(=O)c2ccc(Br)cc2)cc1)c1ccncc1	2	1	-2.1	-18	·	-1.3	-2	2.5
COc1ccc(-c2c(-c3ccccc3OC)sc3ccccc23)cc1	2	-8	-2.6	-9	3.2	1.7	21	-1.5
COc1ccc(Cl)cc1NC(=O)c1cccnc1	1	14	-4.1	-3	1.9	-0.2	-9	1.7
C[C@@H]1CC[C@]2(C(=O)O[C@@H]3O[C@H](CO)[C@@H](O)[C@H](O)[C@H]3O)CC[C@]3(C)C(=CCC4[C@@]5(C)C[C@@H](O)[C@H](O)[C@@](C)(C(=O)O[C@@H]6[C@H](O)C[C@@]7(C)C(CC[C@]8(C)C7CC=C7[C@H]9[C@](C(=O)O[C@@H]%10O[C@H](CO)[C@@H](O)[C@H](O)[C@H]%10O)(CC[C@@H](C)[C@@]9(C)O)CC[C@]78C)[C@@]6(CO)C(=O)O)C5CC[C@]43C)[C@@H]2[C@]1(C)O (stereo not given in full)	4	·	·	·	-0.1	-0.4	-7	0.1
COc1ccccc1NC(=O)C1=C(C)NC2=C(C(=O)CC(c3ccc(OC)c(OC)c3)C2)C1c1coc2ccccc2c1=O (stereo not given)	-18	24	2.0	37	5.1	-0.5	27	2.1
Cc1cccc(-n2c(C)nc3c(cnn3-c3ccc(F)cc3)c2=O)c1	1	-4	-4.5	21	3.2	1.1	7	0.5
COc1ccc(CN(CCO)CCO)cc1[N+](=O)[O-]	0	·	·	-9	6.5	-0.1	-6	-0.1
O=C(CCC1CCCCC1)NNC(=O)c1cnccn1	-22	-18	-1.0	2	4.3	0.3	7	0.9
COc1ccc(C(=O)N2CCN(c3ccc(F)cc3)CC2)cc1S(=O)(=O)NC1CC1	-7	·	·	·	-2.4	-9.1	-2	2.4
CC1CCN(C(=O)Cn2cc(C(=O)C3CC3)c3ccccc32)CC1	-4	-3	0.7	-5	1.3	-0.1	-1	1.4
CCS(=O)(=O)Nc1ccc(C(=O)CC2(O)C(=O)Nc3ccccc32)cc1 (stereo not given)	12	-53	1.9	-12	3.2	0.0	-3	3.2
O=C(COC(=O)/C=C/c1ccccc1)NC1CCCCC1	-3	·	·	·	0.3	-0.3	1	0.2
COc1ccccc1NC(=O)CSc1ccc(-c2ccco2)nn1	-5	-3	1.3	5	-1.3	-0.1	-3	-1.5
O=C(COC(=O)c1n[nH]c(=O)c2ccccc12)c1ccc(Br)cc1	-7	-9	-0.1	-15	0.4	0.5	-8	2.8
Cc1ccc(NC(=O)CSc2ccc(Br)cc2)cc1S(=O)(=O)N1CCOCC1	-5	5	3.0	14	0.8	-0.2	-20	3.6
Fc1ccccc1NC(=S)Nc1cccnc1	0	-5	2.6	21	0.9	-0.6	0	0.3
COc1ccc(NC(=O)CSc2nnc(N)s2)cc1S(=O)(=O)N1CCCCC1	-5	·	·	·	2.6	-0.5	-1	3.5
Cc1nc(C)c(C(=O)N/N=C/c2c[nH]c3ccccc23)s1	4	-2	-5.3	10	·	0.2	-9	-4.6
Nc1c(-c2cccs2)cnn1-c1nc(-c2ccc(F)cc2)cs1	-4	5	-3.2	-11	2.0	0.2	4	3.0
COc1ccc(CNC(=O)c2ccc(Cl)c(NC3=NC4CS(=O)(=O)CC4S3)c2)cc1 (stereo not given)	1	-2	0.2	-11	0.4	0.9	2	-3.7
COCCCNC(=O)c1ccc(Cn2c(=O)c3ccccc3n(CC(=O)NCCc3ccc(OC)c(OC)c3)c2=O)cc1	-7	-5	1.8	8	-1.5	-0.4	0	-1.8
O=C(Nc1cc(Cl)c(O)c(Cl)c1)C1CCCO1 (stereo not given)	5	31	2.0	-10	0.9	0.2	4	6.1
CC(=O)c1ccc(NC(=O)COC(=O)CCC(=O)c2cccs2)cc1	-2	2	-3.9	-3	1.9	-0.6	4	-473
Clc1ccc(-c2n[nH]c3c2CCCC3)cc1	-2	16	-1.0	12	6.7	-0.1	-2	-2.2
COc1cc2[nH]c(=O)n(CCCCCC(=O)NCCCN3CCOCC3)c(=O)c2cc1OC	-8	2	3.8	-3	-12	-0.3	-1	8.1
CCOC(=O)COc1nc2c(c(-c3ccco3)c1C#N)CCc1ccccc1-2	8	-5	-1.4	-7	-224	-0.5	·	-1.3
Cc1nnc2sc(-c3csc4c3CCCC4)nn12	-17	?	-2.2	5	1.4	1.9	-7	1.1
CC1(C)Cc2c(cnn2-c2ccccc2)C(NC(=O)CCc2ccncc2)C1 (stereo not given)	4	1	3.3	-4	1.2	-1.0	·	1.4
CCn1nc(C(=O)Nc2ccc(N3CCOCC3)cc2)c2ccccc2c1=O	-5	·	·	·	8.0	-0.1	0	6.1
O=c1cc(C(F)(F)F)[nH]c2c(C(F)(F)F)cccc12	9	-14	6.4	-38	-125	0.5	11	1.3
CCc1c(C(=O)NNC(=S)NC2CCCCC2)csc1C	-2	-7	-1.6	1	1.6	-1.2	-4	-3.3
COc1ccc(CCNC(=O)C2CCN(C(=O)N(C)C)CC2)cc1OC	-6	-1	2.8	-17	-0.2	0.8	0	1.5
Cc1nc(-c2ccc3c(c2)OCCCO3)cs1	4	5	3.3	7	4.9	-5.0	0	-4.7
Cc1ccc(S(=O)(=O)CC(=O)Nc2ccccn2)cc1	-9	3	1.1	0	1.0	0.4	-5	1.5
Cn1nc(C(=O)OCC(=O)NCCc2ccccc2)c2ccccc2c1=O	2	-10	-3.3	0	1.8	-1.1	1	-7.6

# (more compounds)
SMILES	Beta2AR agonist	Calb FLC	RanGTP-Impb inh	T cruzi repl	UCH37 DUB inh	A1 inh	Beta apoptosis	LANA-H2A inh
CCN(CC(=O)Nc1ccc(NC(C)=O)cc1)C(=O)C1CCC1	-2	-2	·	-11	0.7	1.2	-2	0.2
O=C(O)c1cc2sccc2s1	·	6	0.8	-9	3.3	1.0	1	-3.4
COc1ccccc1-c1nnc(SCc2nc3ccccc3[nH]2)n1C	-6	-2	2.7	3	-12	0.5	-9	-3.6
CCN(CC)S(=O)(=O)c1ccc(N2CCOCC2)c(NC(=O)c2ccc(OC)c([N+](=O)[O-])c2)c1	8	17	3.7	19	-0.6	0.1	-1	-1.1
Cc1cccc2cc(/C=C3\N=C(c4ccccc4)OC3=O)c(N3CCOCC3)nc12	11	-1	-0.8	-6	-1.7	-1.3	1	7.6
COc1ccc(NC(=O)Cn2c(=O)oc3cc(S(=O)(=O)N4CCCC4)ccc32)c(OC)c1	-2	-3	3.5	-9	9.3	-0.3	0	-0.4
CCOc1cccc(OCCCCn2cnc3ccccc3c2=O)c1	12	31	2.0	7	1.7	-0.9	-5	-4.0
Cc1cc(C)c(NC(=O)C(C)(C)C)c(Cl)c1	-13	-4	10	2	-0.7	0.7	-1	4.8
COc1cc(C(=O)NCCOc2ccccc2)cc(OC)c1OC	-17	-13	?	1	2.5	0.0	·	0.2
CCc1noc(C)c1C(=O)Nc1nc(-c2ccccc2)cs1	2	4	?	7	1.5	-0.2	7	-2.6
Cc1ccc(S(=O)(=O)N2CCOC2C(Cl)(Cl)Cl)cc1 (stereo not given)	-5	-10	6.9	-2	2.5	-0.4	-2	2.4
O=C1CSC(=Nc2ccccc2Cl)N1	1	-7	-2.4	-17	1.5	0.8	0	1.1
CCCCN(C(=O)c1cccc(S(=O)(=O)N(C)c2ccc(C)cc2)c1)c1c(N)n(CCCC)c(=O)[nH]c1=O	-7	-12	-1.1	-8	3.6	-0.1	0	-1.7
Cc1cccc(-n2nnnc2SCC(=O)NC2CCCC2)c1	-1	·	·	·	1.9	-0.5	1	0.7
O=C(C1CCCO1)N1CCN(C(=S)Nc2ccc(Cl)c(Cl)c2)CC1 (stereo not given)	18	-7	1.0	-26	1.6	-1.3	-4	0.3
CCn1c(C)nc2cc(C(=O)OCCC(F)(F)F)ccc21	-5	3	1.9	-6	4.2	-1.0	-2	6.4
O=C1Nc2ccccc2Oc2cc([N+](=O)[O-])cc(Oc3ccccc3)c21	-278	-6	-4.4	5	1.8	0.7	2	-0.4
Cc1ccc(N=Nc2cc(C)ccc2N)cc1	11	26	3.8	-7	2.7	-7.8	11	-6.8
Cc1ccc(S(=O)(=O)NNC(=O)CCC(=O)Nc2ccc(C)cc2C)cc1	2	4	1.8	3	2.9	-0.1	-3	-1.6
